High-throughput results (PubChem)
Mtb growth – Mycobacterium tuberculosis H37Rv growth inhibition, cell based, confirmatory dose response (AID 1949); most inactive calls were filed without a number and no value below 0 was filed; inhibition, % at 10 µg/mL; hits with a dose series show IC50 in µg/mL; 100,000 compounds, 1.6% hits;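 active means confirmed in a dose series; inconclusive means about 50% or more but not retested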;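 further: bacteria grown 7 days with compound before Alamar blue readout; 0% = untreated bacteria and 100% = reference antibiotic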
Starred values were filed as active, the others as inactive; i = inactive; ? = inconclusive.

SMILES	Mtb growth
CCC(Sc1nnc(-c2ccncc2)n1C)C(=O)Nc1c(C)cccc1C (stereo not drawn)	i
COc1cccc2cc(-c3nnc(SCC(=O)Nc4ccc5ccccc5c4)n3C)oc12	i
COc1ccc(C(=O)NC(=S)Nc2cc(C(=O)O)ccc2C)cc1OC	i
Cc1cc(C)c(C)c(OCC(=O)Nc2ccc(OCc3ccccc3)cc2)c1	0.0%
O=C(CCNc1ccc(F)c(Cl)c1)c1ccccc1	i
CCOC(=O)c1c(NC(=O)c2c(-c3ccccc3)noc2C)sc2c1CCC(C)C2 (stereo not drawn)	i
COCCCNC(=S)N1C(C)CCCC1C (stereo not drawn)	i
Cc1ccc(S(=O)(=O)N(C)CC(=O)N(Cc2ccccc2)Cc2ccccc2)cc1	i
COc1cccc(NC(=O)c2cnccn2)c1	1.0%
O=C(c1cn(-c2ccccc2)nc1-c1cc2ccccc2oc1=O)N1CCOCC1	i
Oc1ccc(NCc2ccc(Cl)cc2)cc1	i
CCCc1cc(=O)n2[nH]c(Cc3ccccc3)nc2n1	i
CCc1ccc(-c2c(C#N)c(N)nc3c2CCCC3)s1	i
CCOc1ccccc1N(CC(=O)Nc1ccc(C)cc1C)S(C)(=O)=O	i
Cn1c(=O)n(C)c2cc([N+](=O)[O-])c(N3CCN(C(=O)c4ccc(F)cc4)CC3)cc21	i
CC(C)C(=O)Nc1ccc(C(=O)NCc2ccco2)cc1	i
O=C(Nc1nc2c(s1)CCCC2)c1ccc2c(c1)OCO2	i
Cc1cccc(C)c1N1CCN(C(=O)N2CCOCC2)CC1	5.2%
O=C(CSc1nnc(Cc2ccccc2)n1-c1ccc(Cl)cc1)N1CCCC1	i
CCOC(=O)c1c(NC(=O)c2c(-c3ccccc3)noc2C)sc(C)c1CC	1.0%
O=C(CSc1nnc(-c2ccc(Cl)cc2)n1-c1ccccc1)Nc1ccccc1F	i
CCc1ccc(NC(=O)CN(c2ccccc2)S(=O)(=O)c2ccc(Cl)cc2)cc1	i
O=Cc1cn(Cc2ccccc2)nc1-c1ccccc1	1.0%
COc1cccc(C(=O)NC(=S)Nc2ccc(N3CCN(C(=O)c4cccs4)CC3)c(Cl)c2)c1	0.76µg/mL*

Next part, starting with the last five of the part before.
SMILES	Mtb growth
CCOC(=O)c1c(NC(=O)c2c(-c3ccccc3)noc2C)sc(C)c1CC	1.0%
O=C(CSc1nnc(-c2ccc(Cl)cc2)n1-c1ccccc1)Nc1ccccc1F	i
CCc1ccc(NC(=O)CN(c2ccccc2)S(=O)(=O)c2ccc(Cl)cc2)cc1	i
O=Cc1cn(Cc2ccccc2)nc1-c1ccccc1	1.0%
COc1cccc(C(=O)NC(=S)Nc2ccc(N3CCN(C(=O)c4cccs4)CC3)c(Cl)c2)c1	0.76µg/mL*
COC(=O)COc1ccc(-c2nn(C)c(=O)c3ccccc23)cc1	37.3%
Cc1cc(C)c(S(=O)(=O)N2CCN(C(=O)c3cccc([N+](=O)[O-])c3)CC2)c(C)c1	i
COC(=O)Cc1cc(=O)n(-c2nc3ccccc3[nH]2)[nH]1	4.3%
COc1ccc(CCNC(=O)c2ccc(N(Cc3ccc(Cl)cc3)S(C)(=O)=O)cc2)cc1	i
Cc1cc(=O)oc2cc(NC(=S)NNC(=O)C3c4ccccc4Oc4ccccc43)ccc12	i
O=C(NC1(C(F)(F)F)C(=O)Nc2c1c(=O)[nH]c(=O)n2Cc1ccccc1)c1ccc(Cl)cc1 (stereo not drawn)	i
O=C(O)C1CC=CCC1C(=O)Nc1ccc(F)c(F)c1 (stereo not drawn)	i
COc1ccccc1NC(=O)C1=C(C)Nc2nc(-c3ccccc3)nn2C1c1ccccn1 (stereo not drawn)	i
CCOC(=O)C1CCN(C(=O)CN(c2ccccc2CC)S(C)(=O)=O)CC1	i
CC(=O)NC1(C(F)(F)F)N=C2SCCN2C1=O (stereo not drawn)	i
O=C(Nc1ccc(I)cc1C(=O)N1CCOCC1)c1ccc(Cl)cc1	i
COc1cc(S(=O)(=O)N2CCCCC2)ccc1NC(=O)c1ccccc1C	i
Cc1cc(NC(=S)NC(=O)c2ccccc2F)ccc1Br	i
Cc1ccc(NC(=S)NNC(=O)Cn2ncc3ccccc3c2=O)cc1	i
O=C(OCc1ccc2c(c1)OCO2)c1cccc(S(=O)(=O)N2CCOCC2)c1	i
CCn1c(COc2ccc3ccccc3c2C)nnc1SCc1nc2ccccc2c(=O)[nH]1	i
COc1ccc(Cl)cc1NC(=S)N1CCN(C(=O)c2ccco2)CC1	i
CCOC(=O)c1c(NC(=O)c2c(-c3ccccc3Cl)noc2C)sc(C)c1CC	i
COc1ccc(CNC(=O)Cc2c(C)n(C(=O)c3ccc(Cl)cc3)c3ccc(OC)cc23)cc1	i
COC(=O)CSc1nc(NCc2ccccc2)nc(N(C)C)n1	i
N#Cc1cc(Cl)ccc1OCC(=O)O	i
CCOc1ccc(C(=O)Nc2ccc(N3CCOCC3)c(Cl)c2)cc1Cl	i
O=C(CSc1ccc(Cl)cc1)NCc1cccnc1	i
N#Cc1cccc(NC(=O)c2cc(Br)ccc2Cl)c1	i
Cc1ccc2cccc(OS(=O)(=O)c3ccccc3)c2n1	40.5%
CC(=O)Nc1ccccc1Oc1ccccc1	9.2%
O=C(CN1CCOCC1)N1N=C(c2cccs2)CC1c1cccs1 (stereo not drawn)	i
COc1ccc(C2CC(=O)C=C(Nc3ccc(Br)cc3)C2)cc1 (stereo not drawn)	i
COc1nc(C)ccc1-c1noc(COc2ccccc2)n1	2.0%
COc1ccc(-c2noc(CN3CCC(Cc4ccccc4)CC3)n2)cc1	1.5%
N#CC(C(=O)NCc1ccco1)c1ccccc1 (stereo not drawn)	i
CCn1nnc(NC(=O)c2ccc(Br)o2)n1	i
O=C(NCc1ccc(Cl)cc1)c1ccco1	i
COc1ccc(C)cc1S(=O)(=O)Nc1ccc(F)cc1	i
O=C(Nc1ccc2oc(=O)ccc2c1)c1sc2ccccc2c1Cl	2.7%
CCOC(=O)c1ccc(CNC(=O)CSc2nc3sc4c(c3c(=O)n2C)CCCC4)cc1	i

Of the compounds above, 3 contain a COOH group:
SMILES	Mtb growth
COc1ccc(C(=O)NC(=S)Nc2cc(C(=O)O)ccc2C)cc1OC	i
O=C(O)C1CC=CCC1C(=O)Nc1ccc(F)c(F)c1 (stereo not drawn)	i
N#Cc1cc(Cl)ccc1OCC(=O)O	i

Remaining list, next part
SMILES	Mtb growth
COCCCNC(=S)NCCCCc1ccccc1	i
Cn1c(CNC(=O)c2ccc(Cl)c(Cl)c2)nnc1SCCC(=O)Nc1ccccc1	i
CCn1c(CNC(=O)Cc2ccc(OC)cc2)nnc1SCC(=O)c1ccc(Br)cc1	i
CCOc1ccc(NC(=O)Nc2ccc3c(c2)nc(C)n3C)cc1	i
CCCn1c(SCC(=O)Nc2ccc(Cl)c(C(F)(F)F)c2)nnc1-c1ccncc1	3.1%
CC(C)(C)c1cc(Br)ccc1OCC(=O)Nc1ncn[nH]1	i
O=C(Cc1c(F)cccc1Cl)NC1CCCCC1	i
COc1ccc(NC(=O)Nc2ccc(C)c(F)c2)cc1OC	i
O=C1CC(N2CCN(c3cccc(Cl)c3)CC2)C(=O)N1c1ccc(I)cc1 (stereo not drawn)	i
Cc1cccc(C(C)(C)C)c1OCCCN1CCN(C)CC1	i
Cn1c(NCc2ccco2)nc2ccccc21	i
O=C(C(=S)N1CCCCC1)c1c[nH]c2ccccc12	i
CC(=O)c1cccc(NC(=S)NNC(=S)Nc2ccc(F)cc2F)c1	i
CC1=C(C(=O)OCCc2ccccc2)C(c2cccc(F)c2)C2=C(CC(C)(C)CC2=O)N1 (stereo not drawn)	i
O=C(NCc1ccco1)c1ccc(COc2cc(Cl)ccc2Cl)o1	i
Cc1ccc(CN(CC(=O)Nc2ccc(C(N)=O)cc2)S(=O)(=O)c2ccc(Cl)cc2)cc1	1.0%
Cc1cccc(OC(C)C(=O)Nc2ccc(F)cc2)c1C (stereo not drawn)	i
Cn1c(=O)c2c(nc(N3CCc4ccccc4C3)n2Cc2ccccc2)n(C)c1=O	i
Nc1cc(=O)nc(SCC(=O)Nc2ccc(F)cc2)n1CCc1ccccc1	6.2%
COc1ccc(S(=O)(=O)N2CCC(C(=O)Nc3cccc(Cl)c3C)CC2)cc1	i
CC(C)c1ccc(OCC(=O)Nc2ccc(S(=O)(=O)N3CCc4ccccc43)cc2)cc1	i
O=C(Nc1ccc(C(F)(F)F)cc1)c1cccs1	i
O=C(CC1CCCCC1)Nc1ccccc1-c1ccccc1	1.0%
COc1ccc(C(=O)COc2cccc(NC(=O)c3ccccc3Cl)c2)cc1	28.6%
COc1ccc(CCNC(=S)N2CCC(Cc3ccccc3)CC2)cc1OC	i
COc1ccc(CCN(C)Cc2ccccc2Cl)cc1OC	i
CCOC(=O)c1ccc(Oc2nc(NC)nc(Nc3ccccc3)n2)cc1	20.9%
O=C(Nc1ccccc1C(=O)N1CCOCC1)C1CCCO1 (stereo not drawn)	i
COc1ccc(-c2nn(CC(=O)N(C)C)c(=O)c3ccccc23)cc1	i
O=S(=O)(c1ccc(Oc2ccc(Cl)cc2)cc1)c1ccc(Oc2ccc(Cl)cc2)cc1	4.0%
Cc1cccc(-c2nc3c4c5c(sc4ncn3n2)CCCC5)c1	i
CCCCC(=O)N(c1ccc(OC)c(OC)c1)c1nc(-c2ccc(Cl)cc2)c(C)s1	16.9%
COc1ccc(NC(=O)C2CCN(S(C)(=O)=O)CC2)cc1Cl	i
COc1ccc2nc(N3C(=O)CC(Cc4ccc(C)cc4)C3=O)sc2c1 (stereo not drawn)	i
Cc1c(Cl)cccc1Nc1nc(N)nc(CSc2ncn[nH]2)n1	6.5%
COc1ccc(CCNC(=O)CSc2nnc(-c3ccccc3)o2)cc1OC	i

Grouped by structure, the entries above containing a nitro group on carbon
SMILES	Mtb growth
Cn1c(=O)n(C)c2cc([N+](=O)[O-])c(N3CCN(C(=O)c4ccc(F)cc4)CC3)cc21	i
Cc1cc(C)c(S(=O)(=O)N2CCN(C(=O)c3cccc([N+](=O)[O-])c3)CC2)c(C)c1	i

As entered above.
Under Mtb growth, Cc1c(Cl)cccc1Nc1nc(N)nc(CSc2ncn[nH]2)n1 is listed with 6.5%
Under Mtb growth, CCCCC(=O)N(c1ccc(OC)c(OC)c1)c1nc(-c2ccc(Cl)cc2)c(C)s1 is listed with 16.9%

The listing continues.
SMILES	Mtb growth
O=C(Nc1ccc(F)cc1)c1cc2cc(Cl)ccc2oc1=O	i
CN1CCCC(OC(=O)C(C)(c2ccccc2)c2ccccc2)C1 (stereo not drawn)	i
O=C(CSc1nc2ccccc2s1)N=C1NC(=O)CS1	i
O=C(c1cc2cc(Cl)ccc2oc1=O)N1CCCCC1	i
c1ccc(CCCN2CCC(N3CCN(c4ccccc4)CC3)CC2)cc1	i
O=C(O)CNC(=O)/C(=C\c1cccc(Br)c1)NC(=O)c1ccco1	i
CC1CCN(c2ccc(NC(=O)c3cccnc3)cc2)CC1	i
Brc1cccc(OCCN2CCCC2)c1	i
CC(=O)c1ccc(NC(=O)CC2Sc3ccc(C(F)(F)F)cc3NC2=O)cc1 (stereo not drawn)	0.7%
Cc1nc2ccccc2c2c1C(=O)N(Cc1ccco1)C2=O	i
CN(C)c1ccc2c(c1)OC(N)=C(C#N)C2c1cccs1 (stereo not drawn)	4.4%
CC1(C)CC(=O)C2=C(C1)N(Cc1ccc(F)cc1)C(=O)C2(NC(=O)c1cccnc1)C(F)(F)F (stereo not drawn)	i
CC(=O)c1ccc(NC(=O)CSCc2ccc(Cl)cc2Cl)cc1	i
Cc1c(NC(=O)c2ccc(I)cc2)c(=O)n(-c2ccccc2)n1C	i
CCS(=O)(=O)N1CCN(c2ccc([N+](=O)[O-])c(-n3nc(C)c4ccccc4c3=O)c2)CC1	i
COc1ccc(C(=O)c2sc3nc4c(cc3c2N)CCC4)cc1	i
Cc1ccc(NC(=O)C2C3C4CCC(C4)C23)cc1Cl (stereo not drawn)	i
O=C(Nc1sc2c(c1C(=O)NCc1ccco1)CCCC2)c1ccc(Br)cc1	i
O=C(CCc1ccccc1)NC1CC2CCC1C2 (stereo not drawn)	i
O=C(Oc1ccc(Br)cc1C(=S)N1CCOCC1)c1ccccc1F	1.2%
CCOC(=O)c1cccc(NC(=O)C(Cl)Cl)c1	3.07µg/mL*
Cc1cc2c(=O)[nH]c(Cc3ccccc3)nc2s1	i
COc1ccc(Cl)cc1NC(=S)Nc1cc(C(=O)OC(C)C)cc(C(=O)OC(C)C)c1	?
Cc1ccc(SC(C)C(=O)Nc2cccc3ccccc23)cc1 (stereo not drawn)	i
O=C(Nc1ccc(F)c(Cl)c1)C(=O)N1CCCCC1	i
COc1ccc(Cc2nnc(NC(=O)CN3C(=O)c4ccccc4C3=O)s2)cc1	i
O=C(NCc1ccccn1)C1CCN(Cc2cccc(OCc3ccccc3)c2)CC1	i
Fc1ccc(-c2nnc3sc(-c4cccnc4)nn23)cc1	i
C=CCNc1oc(-c2cccs2)nc1C#N	i
COc1cc(C(=O)Nc2ccc(Br)cc2F)cc(OC)c1OC	0.7%
COC(=O)c1ccc(-n2c(CCC(=O)O)ccc2-c2ccc(Cl)cc2)cc1	i
Cc1ccc(-n2ncc3c(NCCc4ccc(S(N)(=O)=O)cc4)ncnc32)c(C)c1	i
COc1ccc(CC(=O)OC2CCCN(C)C2)cc1 (stereo not drawn)	i
Cc1cc(NC(=O)c2ccccc2)c([N+](=O)[O-])cc1C	i
COc1ccccc1OCCOCCN1CC(C)OC(C)C1 (stereo not drawn)	i
COc1ccc(OC)c(NC(=S)NC2CC(C)(C)NC(C)(C)C2)c1	0.6%
Cc1cc2nc(-c3ccc(F)cc3)cc(C(F)(F)F)n2n1	i
CC(C)c1ccc(NC(=O)CSc2nnc(-c3ccc(Br)cc3)o2)cc1	0.7%
C=CCn1c(-c2cc(OC)c(OC)c(OC)c2)nc2ccccc21	i
c1cncc(CNCc2cccs2)c1	i
O=C(CC1C(=O)N(c2ccccc2)C(=O)N1Cc1cccs1)Nc1ccc(Cl)cc1 (stereo not drawn)	i
Cc1ccc(S(=O)(=O)N(C)CC(=O)Nc2cccc3c2CCCC3)cc1	4.0%

The list is partial. The share of hits here may be higher or lower than overall.
